HSV replic up: increases HSV replication in cells. AID 1956. 220,000 compounds, 0.005% hits. maximum fold increase. HSV replication augmentation in cells, fold increase;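 active = peak rise of 1.5-fold or more in the series; tested in PC3 cells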;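 note: first round at 10 µM; read as green reporter fluorescence; hits show the peak of a series up to 25 µM; 1 = signal of infected wells without compound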
PKD1 inh: PKD1 (human) kinase inhibition; Q15139; PKD1 kinase fluorescence polarization assay; inhibition, %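 (about 10 µM by stock and volumes)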; 200,000 compounds, 0.056% hits; AID 797;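 active = inhibition of 50% or more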;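 note: controls were vehicle for no effect and a reference inhibitor for full effect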
Target sequence (Q15139 whole entry, looked up): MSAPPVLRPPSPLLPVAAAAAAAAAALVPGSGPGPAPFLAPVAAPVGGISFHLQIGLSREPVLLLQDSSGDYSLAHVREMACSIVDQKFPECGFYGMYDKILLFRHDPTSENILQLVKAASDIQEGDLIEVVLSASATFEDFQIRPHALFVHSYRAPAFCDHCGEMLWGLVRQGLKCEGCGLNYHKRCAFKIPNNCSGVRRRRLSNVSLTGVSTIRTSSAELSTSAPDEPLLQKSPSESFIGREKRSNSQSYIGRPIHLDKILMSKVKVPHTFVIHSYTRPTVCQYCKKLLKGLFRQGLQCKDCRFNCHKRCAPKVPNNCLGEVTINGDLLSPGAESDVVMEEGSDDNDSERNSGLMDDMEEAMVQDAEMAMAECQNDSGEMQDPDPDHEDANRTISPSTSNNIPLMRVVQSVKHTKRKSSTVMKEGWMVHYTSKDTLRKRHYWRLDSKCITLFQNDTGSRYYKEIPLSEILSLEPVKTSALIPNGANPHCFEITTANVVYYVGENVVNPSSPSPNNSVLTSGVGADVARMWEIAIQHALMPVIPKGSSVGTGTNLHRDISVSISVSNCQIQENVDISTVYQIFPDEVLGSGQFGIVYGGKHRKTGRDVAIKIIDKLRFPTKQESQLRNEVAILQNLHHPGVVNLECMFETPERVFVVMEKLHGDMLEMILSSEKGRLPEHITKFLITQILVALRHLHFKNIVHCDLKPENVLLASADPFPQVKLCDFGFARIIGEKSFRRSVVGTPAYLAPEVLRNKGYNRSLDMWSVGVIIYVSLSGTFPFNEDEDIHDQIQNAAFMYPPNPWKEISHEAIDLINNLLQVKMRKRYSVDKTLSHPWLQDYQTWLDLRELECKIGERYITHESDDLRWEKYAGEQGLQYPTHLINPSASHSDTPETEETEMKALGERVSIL
INS promoter inh: TRM-6 insulin promoter activity inhibition | inhibition, % at 2 µM | 130,000 compounds, 0.9% hits | TRM-6 cells (human fetal islet line), insulin promoter-eGFP reporter, imaging; reporter expression induced with tamoxifen;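 active = inhibition above the mean plus 3 SD, with well images judged a real hit on visual review, cut at about 60% in these data, passing the limit was not always enough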
RGS16-Gao HTS: regulators of human RGS16-Galphao interaction | O15492+P09471 | bead-based flow cytometry RGS16-Galphao binding, fluorescence; actives lie on both sides | binding response (% of control), % at 10 µM | 220,000 compounds, 0.38% hits;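 active = below 25% or above 175%, edge rows of some plates excepted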;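 note: Galphao activated by GDP with aluminum fluoride before binding; 100% = wells without compound and 0% = beads without RGS; some results beyond the cut were filed as inactive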
GALR2 ag: agonists of human galanin receptor 2 (GALR2); O43603; GALR2-expressing cells, agonist activation read-out; activation, %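 (tested at 5 µM)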; 140,000 compounds, 0.48% hits;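 active = above mean plus 3 SD of all compounds, about 5% in these data, not always enough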;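 note: 0% = vehicle buffer wells and 100% = reference agonist at full effect; tested in CHO reporter cells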
INS promoter inh cell count: also measured in INS promoter inh; calls as there; normalized cell count, %; measured here: cell count, toxicity; reference of the scale not given here;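 cells exposed to compound for 48 h; stained nuclei by imaging scaled within each plate; lower means fewer cells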
HSV replic up primary fold: second read-out of HSV replic up, no call of its own (marks repeat the call); fold increase; compound at 10 µM; measured here: primary screen fold increase 10 uM; tested in PC3 cells;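 GFP signal in the first replicate; 1 = infected wells without compound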
* marks the source's active call; other numbers are inactive results; i = inactive; x = no result given. Outcome played no part in choosing rows. Share with any hit: about 1.3%.

SMILES	HSV replic up	HSV replic up primary fold	PKD1 inh	INS promoter inh	INS promoter inh cell count	RGS16-Gao HTS	GALR2 ag
Cc1ccc(C(=O)O)cc1N1C(=O)c2cccc3cc(Br)cc(c23)C1=O	x	x	4	3	168	106	-0.4
Cc1ccc2nc(-c3cccnc3)oc2c1	i	0.87	8	58	115	100	-0.3
NC(=NC(=O)c1ccc(OCC(F)(F)F)nc1)c1ccccc1	i	0.95	x	x	x	101	x
COc1ccc(CCNc2cc(-c3ccccc3)nc3ncnn23)cc1	x	x	-8	11	128	112	-1.3
Cc1csc(-c2coc3cc(O)cc(C)c3c2=O)n1	i	0.91	7	64	131	104	0.0
COc1ccc(OCC(O)CN2C(=O)c3ccccc3S2(=O)=O)cc1 (stereo not given)	i	1	-10	x	x	96	-1.1
O=C1CC(N2CCN(c3ccccc3F)CC2)C(=O)N1c1ccc(F)cc1 (stereo not given)	i	1	3	20	135	x	-2.1
CN(C)c1ccc(-c2nc3cnccn3c2Nc2ccc3c(c2)OCCO3)cc1	i	1.2	x	x	x	99	x
CC(=O)NC(CC(=O)NC(C)c1ccc(Cl)cc1Cl)c1ccccc1 (stereo not given)	i	1.1	-1	x	x	101	x
COc1ccccc1C(O)c1nccn1C (stereo not given)	i	0.89	x	x	x	103	x
Cc1ccc(C(=O)/C=C\Nc2ccc(C)c(C)c2)cc1	i	0.97	-1	-15	154	98	-0.6
Cc1coc2c(C)c3oc(=O)cc(-c4ccccc4)c3cc12	x	x	-4	-37	58	x	-0.6
COc1ccc(-c2nn3c(COc4ccccc4)nnc3s2)cc1OC	i	0.93	-7	53	130	106	0.0
O=C(NCCCCNC(=O)c1c(F)c(F)c(F)c(F)c1F)c1c(F)c(F)c(F)c(F)c1F	i	1.1	-7	8	58	104	-0.3
O=C(CSc1cccc(C(F)(F)F)c1)Nc1cc(S(=O)(=O)N2CCCC2)ccc1Cl	i	0.87	-3	-44	103	114	-0.3
COc1ccc2c(c1)-c1nc(/N=C/c3ccc(O)c(OC)c3)sc1CC2	i	0.91	-4	58	153	97	-1.2
CCOC(=O)c1ccc(OS(=O)(=O)c2ccccc2)c(OC)c1	i	0.97	-4	-8	72	47	-0.2
Cc1csc(SCC(=O)c2c(N)n(CC(C)C)c(=O)n(C)c2=O)n1	i	0.98	-2	31	73	108	-2.9
O=Cc1ccc(-n2cccn2)cc1	i	0.97	2	55	134	117	x
Cc1nnc(SCC(=O)Nc2ccc3c(c2)OCO3)[nH]c1=O	i	0.99	5	x	x	97	x
CCS(=O)(=O)N1CCCC(C(=O)c2ccc(OC)cc2C)C1 (stereo not given)	i	1	4	x	x	76	x
O=S(=O)(c1ccc2nc(SCc3ccc(Cl)cc3)[nH]c2c1)N1CCOCC1	i	1	-3	-50	150	103	-0.3
COc1ccc(NC(=S)NCCc2ccc(F)cc2)c(OC)c1	i	0.96	-2	15	95	19*	-1.0
Cc1occc1C(=O)NNC(=O)Cc1ccccc1	i	0.86	-4	-10	95	101	-2.0
CCOC(=O)c1ccccc1NC(=O)CSc1nnc(C(C)C)n1CC	i	1	-16	-119	86	105	-3.5

Continuation:
SMILES	HSV replic up	HSV replic up primary fold	PKD1 inh	INS promoter inh	INS promoter inh cell count	RGS16-Gao HTS	GALR2 ag
Cc1ccc(C2(C)CC(C)(C)N(C(=O)CSc3nnc(C)s3)c3ccccc32)cc1 (stereo not given)	i	0.98	-9	-62	145	101	0.1
Nc1nc(SCC(=O)O)[nH]c(=O)c1NC(=O)c1ccccc1F	i	1	-4	x	x	100	x
COc1ccccc1C(=O)O/N=C(/C)c1ccc(N2C(=O)C3CCCCC3C2=O)cc1 (stereo not given)	i	0.95	0	27	105	102	-1.1
O=S1(=O)N=CN(Cc2cccc(F)c2)c2ccccc21	i	1	-12	35	56	101	0.5
O=C(Nc1ccc2[nH]ccc2c1)c1ccccc1	i	1.2	x	x	x	98	x
COc1cccc(-c2nc(-c3ccccc3)nc(N3CCN(C)CC3)c2C#N)c1	i	0.76	2	x	x	102	x
COc1cccc(CC(=O)Nc2nc(C)cs2)c1	i	0.91	-1	25	87	108	x
O=C(Cn1c(=O)sc2ccccc21)Nc1ccc(S(=O)(=O)N2CCCC2)cc1	i	0.86	-2	9	92	89	0.1
COc1ccc2cc3cc(C(=O)N4CCN(c5ccccc5)CC4)oc3nc2c1	i	0.85	6	-16	55	103	-2.1
Cc1ccccc1NC(=S)N=Nc1c(O)n(C)c2ccc(S(=O)(=O)N3CCOCC3)cc12	i	0.91	-10	-272	28	91	-0.7
O=[N+]([O-])c1cc(C(F)(F)F)cc([N+](=O)[O-])c1NN=C1CCCCC1	i	0.97	8	x	x	97	0.5
O=C(O)c1cccc(NS(=O)(=O)c2ccc(NC(=O)c3ccco3)cc2)c1	i	1	-8	x	x	97	x
COc1ccc(OC)c(C(=O)CN2C(=O)NC(C)(c3ccccc3)C2=O)c1 (stereo not given)	i	0.78	-9	39	70	96	-2.1
COc1cccc(OC)c1OCCN(C)C	i	1.1	2	70*	93*	109	-0.7
O=C(CCCOc1ccc(Cl)cc1Cl)NNC(=O)c1ccc(NC(=O)c2ccccc2)cc1	i	0.86	0	-5	107	99	-0.7
CN(C(=O)COc1ncnc2c1cnn2-c1ccccc1)C1CCCCC1	i	1.1	-4	x	x	104	x
Cc1oc(-c2cccc(Cl)c2)nc1CSCC(=O)O	i	1.1	8	x	x	105	-5.2
CC(=O)c1ccc(OC(=O)C(CCS(C)(=O)=O)N2C(=O)c3ccccc3C2=O)cc1 (stereo not given)	i	1	-8	43	172	102	0.2
Cc1ccc2cc(CCNC(=O)c3ccc4c(c3)OCO4)c(=O)[nH]c2c1C	i	0.96	-6	x	x	105	-1.6
CCOC(=O)c1cnc(-n2nc(C)cc2C)nc1NCCc1ccccc1	i	0.7	-3	-7	130	100	0.4
Cc1cccn2c(=O)c3cc(C(=O)N4CCN(C(=O)c5ccco5)CC4)n(C)c3nc12	x	x	0	36	140	99	0.5
CCc1ccc(N2C(=O)CN(Cc3cccs3)C2=S)cc1	i	0.65	-5	x	x	106	x
Cc1ccsc1/C=N/NC(=O)CO	i	0.92	-8	x	x	98	x
COc1cc(C)ccc1Oc1nc(-c2ccccc2O)nc2ccccc12	i	1.1	x	x	x	99	x
C/C=C/C(=O)OCC(=O)Nc1nc2ccc(C)cc2s1	i	1	2	43	72	103	-2.3

Two compounds picked at random from those above, as already listed:
SMILES	HSV replic up	HSV replic up primary fold	PKD1 inh	INS promoter inh	INS promoter inh cell count	RGS16-Gao HTS	GALR2 ag
Cc1ccc2cc(CCNC(=O)c3ccc4c(c3)OCO4)c(=O)[nH]c2c1C	i	0.96	-6	x	x	105	-1.6
COc1cccc(OC)c1OCCN(C)C	i	1.1	2	70*	93*	109	-0.7

Next records:
SMILES	HSV replic up	HSV replic up primary fold	PKD1 inh	INS promoter inh	INS promoter inh cell count	RGS16-Gao HTS	GALR2 ag
Cc1ccc(CNC(N)=S)cc1	i	1	-1	x	x	103	0.9
O=C(Cc1cccs1)N/N=C/C(Cl)=C/c1ccccc1	i	0.94	3	40	138	104	x
COc1ccc(/C=N/Nc2nc(N3CCCC3)nc(N3CCCC3)n2)c(OC)c1OC	i	0.97	-4	45	97	100	0.4
CCOC(=O)c1c(C)c(C(=O)Nc2ccc(N(C)C)cc2)c(C)n1CC	i	0.69	11	57	76	97	-1.5
Cc1c(NC(=O)c2cc3c(s2)CCCC3)c(=O)n(-c2ccccc2)n1C	i	0.96	-7	x	x	100	x
CN1C(=O)CC(C(=O)O)SC1=Nc1cc(Cl)cc(Cl)c1 (stereo not given)	i	0.77	-10	-13	91	103	-0.8
COc1ccc(OCCCC(=O)Nc2cccnc2)cc1	x	x	-2	8	140	108	-2.2
CCc1ccc(-n2c(=O)c3c(C)c(C)sc3n(CC(=O)NCC3CCCO3)c2=O)cc1 (stereo not given)	i	0.73	-1	-27	144	102	x
CC1(C)CC(=O)C(C=Nc2ccc3[nH]ncc3c2)=C(O)C1	i	0.73	-2	9	66	101	-1.8
O=C(OC1CCCCC1=O)c1cc(Cl)ccc1[N+](=O)[O-] (stereo not given)	i	0.89	3	x	x	103	x
O=C(/C=C/c1ccco1)N(c1ccccn1)c1ccccn1	i	0.98	29	33	150	93	x
CC(=O)N1c2ccc3ccccc3c2C2C=CCC2C1c1ccc(Br)cc1 (stereo not given)	x	x	7	-57	115	98	1.0
Cc1c(NC(=O)c2c(N)n(-c3ccccc3)c3nc4ccccc4nc23)c(=O)n(-c2ccccc2)n1C	i	0.98	-1	x	x	94	-1.4
CC(C)C[C@H](NC(=O)Nc1cccc(C(F)(F)F)c1)C(=O)O	i	0.79	2	x	x	101	-0.6
COC(=O)CCCC1=CC2=CC(=O)C(C)(OC(=O)c3cccs3)C(=O)C2=CN1CC1CC1 (stereo not given)	i	1	x	x	x	96	x
O=C(Cc1ccccc1)N/N=C/c1ccccc1OCc1ccc(Cl)cc1	i	0.99	5	14	75	102	-3.4
CCOC(=O)c1sc2ncnc(NCC(c3cccs3)N(C)C)c2c1C (stereo not given)	i	0.86	7	x	x	106	0.2
CCN1C/C(=C/c2ccc(N3CCOCC3)cc2)C(=O)/C(=C/c2ccc(N3CCOCC3)cc2)C1	x	x	-14	x	x	101	-1.5
CC(=O)C1C(c2ccc(Cl)cc2)c2c(noc2C)CC1(C)O (stereo not given)	i	1.2	x	x	x	96	x
CC(C)(C)NC(=O)C(OC(=O)c1cccs1)c1ccccc1 (stereo not given)	i	1.1	-2	x	x	100	x
COc1ccc(OCC(=O)Nc2cc(-c3nn(C)c(=O)c4ccccc34)ccc2OC)cc1	i	0.94	1	23	118	95	-1.7
C/C=C/C(=O)Nc1cccc(C2=NOC3(C2)C[C@H](C(N)=O)N(C(=O)c2ccccc2C(=O)c2ccccc2)C3)c1 (stereo not given in full)	i	0.88	x	x	x	101	x
CC1(C)C(=O)Nc2ccccc2N1C(=O)COC(=O)CCSc1ccccc1	i	1	-1	-19	75	101	-2.0
Cc1csc(SCC(=O)NC(=O)NCCC(C)C)n1	i	1	0	x	x	99	x
CN(C)S(=O)(=O)N(CC(=O)Nc1ccc2ccccc2c1)c1ccccc1	i	0.76	-6	39	124	108	-2.0

RGS16-Gao HTS, hit marks shown above
molecule | HSV replic up | HSV replic up primary fold | PKD1 inh | RGS16-Gao HTS | GALR2 ag
COc1ccc(NC(=S)NCCc2ccc(F)cc2)c(OC)c1 | i | 0.96 | -2 | 19* | -1.0

Single records (already shown). Order of screens: HSV replic up	HSV replic up primary fold	PKD1 inh	INS promoter inh	INS promoter inh cell count	RGS16-Gao HTS	GALR2 ag
CCOC(=O)c1c(C)c(C(=O)Nc2ccc(N(C)C)cc2)c(C)n1CC reads i	0.69	11	57	76	97	-1.5
COc1ccc(/C=N/Nc2nc(N3CCCC3)nc(N3CCCC3)n2)c(OC)c1OC reads i	0.97	-4	45	97	100	0.4
Cc1c(NC(=O)c2c(N)n(-c3ccccc3)c3nc4ccccc4nc23)c(=O)n(-c2ccccc2)n1C reads i	0.98	-1	x	x	94	-1.4

Next part.
SMILES	HSV replic up	HSV replic up primary fold	PKD1 inh	INS promoter inh	INS promoter inh cell count	RGS16-Gao HTS	GALR2 ag
CSc1ncc(Cl)c(C(=O)NCc2ccc3c(c2)OCO3)n1	i	0.96	-3	50	99	103	-2.8
COc1cccc(NC(=S)N(CCCN2CCC(C)CC2)Cc2cccs2)c1	i	1	-5	x	x	103	x
COC(=O)c1ccc(S(=O)(=O)N(Cc2ccccc2)Cc2ccccc2)n1C	i	1	x	x	x	99	x
O=C(CSC1=NCCN1)NC12CC3CC(CC(C3)C1)C2	i	1	-2	x	x	105	-0.9
Cn1ccnc1C1CCCCN1C(=O)c1cc(COc2ccc(F)cc2F)on1 (stereo not given)	i	0.98	x	x	x	106	x
Cc1ccc(CC2C(=O)N(c3cc(Cl)ccn3)C(=O)C2C)cc1 (stereo not given)	i	0.94	x	x	x	101	x
Cc1cccc(-n2c(O)c(C=Nc3ccccc3)c3ccccc3c2=O)n1	i	1.1	-9	x	x	96	x
C=CCNC(=S)NC1CC(C)(C)NC(C)(C)C1	i	1.1	0	-21	115	111	-0.3
O=C(NCC1CCCO1)c1nc2c(nnn2Cc2ccc(F)cc2)c(=O)[nH]1 (stereo not given)	i	1.1	-6	6	118	120	-1.7
O=c1cccc(-c2ccc(Br)cc2)o1	i	0.91	-13	18	104	104	-1.3
CC(C)COC(=O)CCNc1n[nH]c(=O)[nH]c1=O	i	1	-1	-18	115	92	-1.4
COc1ccccc1NC(=O)CSc1nncn1-c1cccnc1	i	0.86	0	-281	92	114	-1.3
Cc1cc(S(=O)(=O)Nc2ccc(F)cc2)c(C)s1	i	0.89	0	7	123	102	-3.2
CCCC(CCC)C(=O)OC1C[C@H]2CC[C@@H](C1)[N+]2(C)C (stereo not given in full)	i	0.95	-9	5	141	103	-2.3

From PubChem
